# FEN1 inhibitor: blocks human flap endonuclease 1 | P39748 | Potency, µM (titrated, usually from 114 µM), inactives show at the top dose activity change, negative = inhibition, hits mostly inhibitors | Recombinant FEN1 flap cleavage, fluorescence, 15 min | AID 588795 | 0.35% of 390,000 active; further: nearly all actives have a fitted effect of over 65% in size
# Target sequence (P39748 whole entry, looked up): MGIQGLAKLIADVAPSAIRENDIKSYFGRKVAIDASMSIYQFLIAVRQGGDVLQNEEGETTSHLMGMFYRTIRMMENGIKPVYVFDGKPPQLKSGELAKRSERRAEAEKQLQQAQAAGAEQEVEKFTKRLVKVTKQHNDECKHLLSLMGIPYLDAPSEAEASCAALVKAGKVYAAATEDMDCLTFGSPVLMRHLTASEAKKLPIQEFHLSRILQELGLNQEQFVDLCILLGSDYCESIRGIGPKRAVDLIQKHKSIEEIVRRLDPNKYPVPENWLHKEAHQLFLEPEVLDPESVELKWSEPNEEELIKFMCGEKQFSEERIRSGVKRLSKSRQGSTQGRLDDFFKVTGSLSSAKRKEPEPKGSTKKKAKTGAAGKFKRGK
#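 With each library titrated from low to high concentration, compounds met 10 nM FEN1 for 15 min at room temperature before 50 nM substrate was added; readings at 0 and 15 min fed four-parameter Hill curve fits.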
# N370S GC mod: inhibitors or activators of N370S glucocerebrosidase for Gaucher disease. P04062. N370S GC spleen homogenate, 4MU-glucoside fluorescence. Potency, µM (highest dose often 59.4 µM), without a hit: top-dose activity change, negative = inhibition, usual class: inhibitors. 0.092% of 330,000 active;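 further: 0% = full enzyme activity and -100% = no enzyme basal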
# Numbers without * were called inactive; ? = inconclusive; . = no result given; & = joins results of further samples; [ ] = remark or other dose. The call rests on the fitted dose curve; in most records, active means well fitted curve in the direction sought with a large enough effect; inconclusive means small, poorly fitted or top-dose-only effect, or another doubt; inactive means no such curve, though single readings can be large; an effect the other way counts as inactive or inconclusive. Unless noted, on the % scale 0 is the no-effect control and ±100 the full control effect; potency means the concentration at half of the fitted maximal effect.
# Below each compound: FEN1 inhibitor | N370S GC mod
CCOC(=O)C1=C(C)NC(=O)NC1/C=C/c1ccccc1 (stereo not given)
  2% | 0%
CN(C(=O)CC(NC(=O)c1ccccc1Cl)c1ccccc1)c1ccccc1 (stereo not given)
  1% | 0%
O=[N+]([O-])c1cc(C(F)(F)F)ccc1Sc1ccccn1
  7% | 2%
N#C/C(=C(/N)Sc1ccc(N)cc1)c1ccccc1C(F)(F)F
  . | -5%&-6%
Fc1ccc([C@@H]2CCNC[C@H]2COc2ccc3c(c2)OCO3)cc1
  15%&-5%&-5% | -8%&-7%&-23%
COc1ccc(N2CCn3c2nc2c3c(=O)n(CCCc3ccccc3)c(=O)n2C)c(OC)c1
  -16% | -15%
Cc1cccc(C)c1NC(=O)C(=O)NCCOc1ccc(Cl)cc1
  0% | 5%
c1ccc2c(c1)OCC(c1nnc3n1-c1ccccc1SC3)O2 (stereo not given)
  1% | 5%
C=CCn1c(N)cc(=O)nc1SCC(=O)N(c1ccccc1)c1ccccc1
  5% | 1%
O=C(COc1ncnc2c(Cl)cc(Cl)cc12)N1CCCCC1
  -2% | -20%
NC(=S)N/N=C1\CC(c2ccc3c(c2)OCCO3)Oc2ccc(F)cc21 (stereo not given)
  -16% | -4%
Cc1ccc(CNc2ccc(-c3nc(C(C)C)no3)cc2[N+](=O)[O-])cc1
  1% | .
O=C(COc1ccccc1)NCc1ccc2c(c1)CCN2C(=O)c1ccc(Cl)cc1
  -15% | .
COc1cccc(CNC(=O)c2ccc(CN3CC(=O)N4CCCCC4C3=O)cc2)c1 (stereo not given)
  1% | .
Cc1ccc(C(=O)C2=C(O)C(=O)N(CCCn3ccnc3)C2c2ccc(OC(C)C)cc2)o1 (stereo not given)
  -6% | 0%
CCN(CC)c1cc(C)c2cc(NC(=O)/C=C/c3ccccc3Cl)ccc2n1
  -4% | .
Nc1c([N+](=O)[O-])c(=O)sc2ccccc12
  -5% | -5%
O=c1[nH]c2ccccc2n1CCCSc1cnc2ccccc2n1
  3% | ?
CCNC(=O)c1cccc(NC(=O)c2cc(C3CC3)nc3c2cnn3C(C)C)c1
  -14% | -3%
O=C(NCc1cccn1Cc1ccccc1)Nc1cccc(C(F)(F)F)c1
  10% | .
COCC(C)n1c(C)cc(C(=O)COC(=O)c2ccc3ncsc3c2)c1C (stereo not given)
  -19% | 7%
O=C1CN(C(=O)c2ccc(Br)o2)C(c2ccccc2)c2cc(F)ccc2N1 (stereo not given)
  13% | 0%
COc1ccc(-c2cc(=O)c3ccccc3[nH]2)cc1
  -2% | -6%[89.1 µM]
COc1ccc(OC)c(NC(=O)c2nc(S(=O)(=O)Cc3ccc(F)cc3)ncc2Cl)c1
  -21% | .
CCC(C)/C(C)=N/Nc1ccc(S(N)(=O)=O)cc1[N+](=O)[O-] (stereo not given)
  -9% | -3%
Cc1onc(-c2ccccc2Cl)c1C(=O)Nc1nnc(Cc2ccc(Cl)cc2)s1
  -7% | 8%
Cc1nn(CC(=O)NCc2cccc(F)c2)c(=O)c2c(C)n(-c3ccc(Cl)cc3)nc12
  -1% | .
COc1ccccc1C(=O)N1C(CC(=O)Nc2ccc(C)c(C)c2)C(=O)NC2CCCCC21 (stereo not given)
  -1% | -5%
CC(=O)Nc1nnc(SCC(=O)N2CCN(Cc3ccccc3)CC2)s1
  -7% | 2%
COc1ccc(CCNC(=O)CSc2nnnn2-c2ccccc2OC)cc1OC
  4% | 12%
CSC1=NCCN1C(=O)C(C)Oc1ccccc1 (stereo not given)
  -3% | 2%
O=C(COC(=O)CNC(=O)c1ccc(Cl)cc1)Nc1cccc(S(=O)(=O)N2CCCC2)c1
  -11% | 2%
O=C(NNC1CC(=O)N(c2cccc(Cl)c2)C1=O)c1cccnc1 (stereo not given)
  -4% | 9%
COc1cccc2sc(NNC(=O)COc3ccccc3)nc12
  -1% | -16%
O=[N+]([O-])c1ccccc1OCC(O)CNC1CCCC1 (stereo not given)
  -4% | -7%
COCCNC(=O)Nc1ccc2c(c1)N(C)C(=O)CS2
  17% | 3%
COc1cc(NC(=O)CSc2nnc3ccccn23)cc(OC)c1
  -16% | .
CC(C)(C)NC(=O)c1ccc(Cn2cc(C(F)(F)F)ccc2=O)cc1
  -14% | 2%
Cc1cc(C(=O)Nc2cccc(S(=O)(=O)N3CCCC3)c2)c2ccccc2n1
  -7% | .
O=C(O)/C=C\C(=O)Nc1ccccc1C(=O)NCc1ccccc1
  -3% | 13%
CCOc1ccc(-n2c(=S)sc3c(=O)[nH]c(SCC(=O)NC(C)CC)nc32)cc1 (stereo not given)
  -2% | 0%
COc1ccccc1CNC(=O)c1cccc(-c2ccc(C)c3ccccc23)n1
  . | 25%[89.1 µM]
CCN(CC)C(=O)Cn1c(=O)n(-c2ccccc2)c(=O)c2c3c(sc21)CCC3
  -1%&2% | -14%
Cn1cccc1Cc1nnc(SCC(=O)Nc2cccc(F)c2)n1-c1ccc(F)cc1
  -20% | 1%
Cc1ccccc1NC(=O)CCN1CCCC1
  -7% | -8%
O=S(=O)(NCCCN1CCOCC1)c1ccc2c(c1)OCCO2
  11% | -5%
Nc1cc(-c2ccc(Br)cc2)nn1S(=O)(=O)c1cccc2nsnc12
  8% | 2%
O=C(Nc1ccc(C(F)(F)F)cc1)C(Cc1ccccc1)n1cccc1 (stereo not given)
  -8% | .
Cc1ccc2nc3c(c(Nc4ccc(C)c(C)c4)c2c1)CCC3
  -22% | .
Cc1ccc(CNC(=O)c2ccc(N(C)C)cc2)cc1
  3% | 16%

# Additional compounds
# Below each compound: FEN1 inhibitor | N370S GC mod
C=CCn1c(SCC(=O)Nc2ccccc2-c2ccccc2)nc2cc(C(=O)O)ccc2c1=O
  13% | 5%
O=C(NNc1nc(N2CCOCC2)nc(N2CCOCC2)n1)Nc1ccc(Cl)cc1
  . | 13%
CC(C)(C)c1ccc(Oc2ccc(N)cn2)cc1
  16% | -11%
Cc1cc(OC(C)C(=O)N/N=C/CC(C)c2ccccc2)ccc1Cl (stereo not given)
  -4% | 0%
Clc1ccc(-c2nnc3n2CCCC3)cc1
  -4% | 6%
Cc1ccc(-n2nc(C(=O)NCCN(C)C)c(=O)n(C)c2=O)cc1
  5% | .
CC(=O)N1CCN(CCN=CC2=C(O)CC(c3ccco3)CC2=O)CC1 (stereo not given)
  -2% | -2%
Cc1cc(C)nc(N2N=C(CSc3ccc(Cl)cc3)CC2=O)n1
  -13% | -3%
Cn1ccc(C(=O)Nc2cccnc2Cl)n1
  -6% | 1%
COc1ccc(OC)c(/C=N/N(C)c2ccccc2)c1
  5% | 5%
CC(C)NC(=O)Cn1c(SCC(=O)NC2CCCC2)nc2ccccc21
  -4% | -13%
Cc1ccc(S(=O)(=O)N2CCN(C(=O)c3nn(C(C)C)c(=O)c4ccccc34)CC2)cc1C
  -3% | 6%
CCc1nnc(SCCSc2nnc(CC)n2N)n1N
  -4% | -6%
O=C(CN(C(=O)c1csnn1)c1ccccc1Cl)NC1CCCCC1
  -7% | 3%
CCN(CC)CCNc1nc2cc(OC)c(OC)cc2c2nc(-c3ccccc3)nn12
  ? | -15%
Cc1ccc(C)c(NC(=O)COC(=O)CCCN=C2NS(=O)(=O)c3ccccc32)c1
  -11% | -21%
COc1ccc(Cl)cc1N(C(C)C(=O)O)S(C)(=O)=O (stereo not given)
  -2% | 7%
CCC(C(=O)N1CCN(c2ccccc2)CC1)n1nc(C)c2sc3ccccc3c2c1=O (stereo not given)
  -4% | .
Cc1ccc(C(=O)Nc2ccc3nc(C)sc3c2)s1
  -11% | 1%
Cc1ccc(N2CC(C(=O)NCCc3ccc(S(N)(=O)=O)cc3)CC2=O)cc1 (stereo not given)
  -13% | -1%
COCCCNC(=O)CSc1ccsc1[N+](=O)[O-]
  12% | 2%
Cc1cc(NN)nc2ccc(Cl)cc12
  -1% | 1%
CC(NC(=O)COc1ccccc1-c1ccccc1)c1ccccc1 (stereo not given)
  ? | 0%
CCOC(=O)C1=C(COC(=O)/C=C/c2cccc(OC)c2)NC(=O)NC1C (stereo not given)
  -1% | -14%
Cc1ccc(N/C(SCc2ccccc2C)=C(/C#N)C(=O)NCc2ccco2)cc1C
  3% | 2%
COc1ccccc1OCC(=O)Nc1ccc(-c2nnc(-c3ccco3)o2)cc1
  0% | -1%
Cc1nn(C(=O)CCC(=O)NCc2cccc(F)c2)c2ccccc12
  0% | -7%
CCOc1ccc(C(O)Cc2nc3ccccc3n2C)cc1 (stereo not given)
  7% | 2%
O=C(N/N=C/c1ccc(N2CCOCC2)o1)c1cccc(C(F)(F)F)c1
  -11% | -2%
CCOc1ccc(C(=O)OCCN(C)C)cc1
  1% | 3%
Cc1nc(NS(=O)(=O)c2ccccc2C)c2c3c(sc2n1)CCC3
  6% | 8%
COc1ccc(CCNC(=O)CSc2nnc(CNC(=O)c3c(F)cccc3Cl)o2)cc1OC
  -6% | -5%
COc1ccc(/C=C/C(=O)NCCc2nc3ccccc3[nH]2)cc1
  0% | -9%
CCSc1nnc(NC(=O)c2cc(C)on2)s1
  0% | 7%
O=C1CCCC(=NCc2ccco2)C1
  1% | -4%
CCOc1ccc(OCCSc2nnnn2C2CCCCC2)cc1
  -2% | 12%
COc1ccc(OC)c(NC(=O)c2ccc(OC3CSC3)cc2)c1
  7% | 28%
CCOc1ccc(NC(N)=O)cc1
  8% | 8%
CCOc1ccc(Cn2c(C)nc([N+](=O)[O-])c2SCC(O)CCl)cc1[N+](=O)[O-] (stereo not given)
  -18% | 9%
CCN(CC)S(=O)(=O)c1ccc(C2=NOC3(C2)N(C)c2ccccc2C3(C)C)cc1 (stereo not given)
  8% | -4%
C/C(=N\OC(=O)c1ccc(OC(C)C)cc1)c1ccc(C)c(C)c1
  -8% | 16%
COc1ccc(OCC(=O)Nc2cc(S(=O)(=O)N3CCCC3)ccc2Cl)cc1
  -11% | 2%
CC(C)(C)NC(=O)C(=O)NNC(=O)COc1ccccc1
  -9% | -3%
CCC(=O)c1cc(F)c(N2CCN(S(=O)(=O)c3ccccc3)CC2)cc1C
  0% | 6%
CN(C)c1cc(NC(=O)CNC(C)(C)C)c2ccccc2n1
  -25% | 28%
COc1ccc(C2c3[nH]c4ccccc4c3CCN2CCCn2cccn2)cc1C (stereo not given)
  -9% | -16%
Cc1nc2ccccc2nc1CSc1nnc(N)s1
  6% | 1%
O=C(CNCC1CCCO1)Nc1ccccc1-n1cccc1 (stereo not given)
  8% | 3%
O=[N+]([O-])c1ccc(-c2cc(-c3ccc(Cl)cc3)n[nH]2)cc1
  -3% | -23%
CCCn1c2ccccc2c2nc3ccccc3nc21
  ? | 13%

# The results go on.
# Below each compound: FEN1 inhibitor | N370S GC mod
O=C(COC(=O)CN1C(=O)c2ccccc2C1=O)Nc1ncc(Cl)cc1Cl
  4% | 8%[2.35 µM]
C/C(=N\NC(=O)Cc1cccc2ccccc12)c1ccncc1
  0% | 2%
O=C1N/C(=N\c2ccccn2)SC1Cc1ccc(Cl)cc1 (stereo not given)
  -1% | -1%
COc1ccc(C2=NN(C(=O)c3ccncc3)C(c3ccccc3O)C2)cc1 (stereo not given)
  0% | 0%
CCNC(=O)/C(C#N)=C/c1c(N2CCN(Cc3ccc4c(c3)OCO4)CC2)nc2c(C)cccn2c1=O
  33% | 29%
COCCNC(=O)CCCn1c(=O)c2ccccc2n(CC(=O)NCCC2=CCCCC2)c1=O
  -3% | 5%
CCn1c(CNC(=O)c2cccc(C)c2)nnc1SCC(=O)NC1CCCCC1C (stereo not given)
  -3% | 8%
C#CCOCCOCCOCCNc1nc(N2CCN(C(=O)[C@H](CCCCN)n3cc(CN)nn3)CC2)nc(N2CCN(C(=O)[C@H](CCCCN)n3cc([C@@H](N)[C@H](C)CC)nn3)CC2)n1
  -24% | .
Cc1nnc(NC(=O)C(C)Oc2ccc3c(C)cc(=O)oc3c2)s1 (stereo not given)
  -7% | -12%
CC(=O)c1sc(-c2c(C)nc3sccn23)nc1C1CCCC1
  . | 1%
CC1=CC(C)(C)Nc2ccc(OC(=O)CN3C(=O)c4ccccc4C3=O)cc21
  4% | -5%
Cc1cc(=O)n2nc(N3CCC(C(=O)NCC(C)c4ccccc4)CC3)sc2n1 (stereo not given)
  0% | 5%
CS(=O)(=O)Nc1ccc(C(=O)NCCSc2ccc(Cl)cc2)cc1
  -6% | -15%
Cc1cc(N)n(-c2cc(C)c3ccccc3n2)n1
  -8% | -1%
O=C(NCCN1C(=O)S/C(=C\c2cccnc2)C1=O)c1cccc(OC(F)F)c1
  -2% | -5%
Cc1cc(C)cc(N(CC(=O)Nc2cc(C)ccc2C)S(=O)(=O)c2c(C)[nH]c(=O)[nH]c2=O)c1
  18% | 8.9µM*
Cc1nnc2sc(-c3ccccn3)nn12
  -13% | -2%
Cc1ccc(S(=O)(=O)N/N=c2\sc3ccccc3n2C)cc1
  -14% | 5%
Fc1ccc(C2CC(c3ccc(F)cc3)n3ncnc3N2)cc1 (stereo not given)
  -16% | 0%
O=S(=O)(NCCSCc1ccc(Cl)cc1Cl)c1ccc2c(c1)OCCO2
  1% | 1%

# N370S GC mod: what is marked active above.
# Below each compound: FEN1 inhibitor | N370S GC mod
Cc1cc(C)cc(N(CC(=O)Nc2cc(C)ccc2C)S(=O)(=O)c2c(C)[nH]c(=O)[nH]c2=O)c1
  18% | 8.9µM*

# 3 compounds already listed, arranged by their value in FEN1 inhibitor, ascending:
smiles	FEN1 inhibitor
Cc1ccc(S(=O)(=O)N/N=c2\sc3ccccc3n2C)cc1	-14%
CC1=CC(C)(C)Nc2ccc(OC(=O)CN3C(=O)c4ccccc4C3=O)cc21	4%
Cc1cc(C)cc(N(CC(=O)Nc2cc(C)ccc2C)S(=O)(=O)c2c(C)[nH]c(=O)[nH]c2=O)c1	18%

# Compound activity: PubChem, National Center for Advancing Translational Sciences (NCATS)

# These rows are one share of the data, and most or all hits are left out here.
